MITF inhib: inhibitors of MITF. inhibition, % (concentration not given with the values). TRPM1 promoter luciferase, luminescence, 24 h. AID 2240. 37,000 tested, 0.28% active;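 active = most replicates at 85% or more, or half of them and the mean; inconclusive = half reach 85% but not the mean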;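 also: human melanocyte line stably carrying TRPM1 promoter luciferase reporter; 0% = vehicle wells and 100% = a positive control; the first replicate is given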
YB-1 expression: YB-1 expression inhibition | U2OS, qRT-PCR YB-1 vs CDIP delta delta Cp, 16 h; stronger effect = higher value; zero = DMSO, each unit about twofold | delta delta Cp (YB-1 minus CDIP) (test concentration not listed) | 30,000 tested, 0.37% active;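 active = delta delta Cp rounded down to an integer at or above 3, about 3 SD of DMSO wells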;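 also: higher means less YB-1 transcript or more CDIP transcript relative to DMSO; stock transfer was 100 nL into about 100 µL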
PD-1 reverse act: activators reversing PD-1 mediated T-cell inhibition; primary human CD4 T cells, PD-L1 beads, CellTiter-Glo 96 h; activation, % (no concentration beside the values); 29,000 tested, under 10 active; AID 2316;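 active = replicate mean of 50% or more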;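 also: 0% = median vehicle wells and 100% = positive control; 100 nL library stock added to about 50 µL; numbers are from one replicate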
Shh pathway inh: blocks Sonic Hedgehog signaling. Shh-LIGHT2 Gli-luciferase reporter, 30 h. inhibition, % (concentration not given with the values). 22,000 tested, 2.1% active. AID 2313;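 active = replicate mean of 65% or more; inconclusive = mean lower but half the replicates past it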;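 also: pathway switched on by Shh-conditioned medium diluted 1 in 25 in low serum; 100 nL library stock added to about 40 µL; 0% = median of neutral wells and 100% = positive control level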
An asterisk follows results filed as active. This is a subset; rates above refer to the full screens.

COc1ccc(N2C(=O)c3ccc(Oc4ccccc4)cc3C2=O)cc1 was read as MITF inhib -16, YB-1 expression 0.1, PD-1 reverse act 0.3 and Shh pathway inh -28.
`Cc1ccc(OCC(O)Cn2cnc3ccccc32)cc1` (stereo not given) gave MITF inhib -41 and PD-1 reverse act 0.9.
`CC1(C)CC(=O)c2c(oc3ccc(NS(=O)(=O)c4cccc5cccnc45)cc23)C1` gave MITF inhib 69 and PD-1 reverse act 1.9.
C[C@@H]1CN([C@H](C)CO)C(=O)c2cccc(NS(=O)(=O)c3cccs3)c2O[C@@H]1CN(C)Cc1ccc(C(F)(F)F)cc1 was read as MITF inhib -16, YB-1 expression -0.61, PD-1 reverse act -1.5 and Shh pathway inh -21.
Screening C[C@H]1CN([C@@H](C)CO)C(=O)c2cc(NS(=O)(=O)c3cccs3)ccc2O[C@H]1CN(C)Cc1ccc(C(=O)Nc2ccccc2N)cc1 returned MITF inhib 18, YB-1 expression -0.31 and PD-1 reverse act -0.1.
Screening COc1ccc(S(=O)(=O)Nc2ccc3c(c2)CC(=O)N([C@H](C)CO)C[C@@H](C)[C@@H](CN(C)CC2CC2)O3)cc1 returned MITF inhib -12, YB-1 expression -0.59 and PD-1 reverse act 0.6.
CC(=O)N[C@@H](CSC/C=C(\C)CC/C=C(\C)CCC=C(C)C)C(=O)O was read as MITF inhib -3, YB-1 expression 0.22, PD-1 reverse act 2.0 and Shh pathway inh -43.
Screening CC(C)NC(=O)Nc1ccc2c(c1)CC(=O)N([C@H](C)CO)C[C@@H](C)[C@H](CN(C)S(=O)(=O)c1cn(C)cn1)O2 returned MITF inhib -7, YB-1 expression -0.44, PD-1 reverse act 0.7 and Shh pathway inh -2.
`Cc1ccc(NC(=O)C23CC4CC(CC(C4)C2)C3)cc1` gave MITF inhib -11, YB-1 expression -0.34 and PD-1 reverse act -0.1.
`C[C@@H]1CN([C@H](C)CO)C(=O)c2cccc(NC(=O)c3ccncc3)c2O[C@H]1CN(C)S(C)(=O)=O` gave MITF inhib -23, YB-1 expression 0.12, PD-1 reverse act 0.9 and Shh pathway inh -2.
`C[C@H]1CN([C@@H](C)CO)C(=O)c2cc(NC(=O)Nc3ccc(F)cc3)ccc2O[C@H]1CN(C)Cc1ccc(Oc2ccccc2)cc1` gave MITF inhib -2, YB-1 expression 0.45 and PD-1 reverse act -1.5.
Screening C[C@@H]1CN([C@@H](C)CO)C(=O)c2cc(NC(=O)NC3CCCCC3)ccc2O[C@@H]1CN(C)S(=O)(=O)c1cn(C)cn1 returned MITF inhib 3, YB-1 expression -0.26, PD-1 reverse act 0.7 and Shh pathway inh 11.
Screening C[C@@H]1CN([C@H](C)CO)C(=O)Cc2cc(NC(=O)C3CC3)ccc2O[C@H]1CN(C)C(=O)Nc1ccc(F)cc1 returned MITF inhib -1, YB-1 expression 0.033, PD-1 reverse act 1.3 and Shh pathway inh 45.
For Cc1ccc(N(C(C)C(=O)Nc2ccc(Br)c(C)c2)S(C)(=O)=O)cc1 (stereo not given) the results were MITF inhib 3 and PD-1 reverse act -1.0.
C[C@H]1CN([C@@H](C)CO)C(=O)c2cccc(NS(=O)(=O)c3ccc(Cl)cc3)c2O[C@@H]1CN(C)Cc1ccncc1 was read as MITF inhib 3, YB-1 expression 0.53 and Shh pathway inh -17.
`N#Cc1c(N)nc2c(sc3nc4c(cc32)CCC4)c1-c1ccc(Br)cc1` gave MITF inhib -7, YB-1 expression 0.23, PD-1 reverse act 0.4 and Shh pathway inh 29.
Screening O=C(CSc1nnc(-c2ccc(Cl)cc2)n1-c1ccccc1)Nc1cccc(Cl)c1Cl returned MITF inhib 30 and PD-1 reverse act -3.2.
For C[C@H](CO)N1C[C@H](C)[C@@H](CN(C)C(=O)Nc2ccccc2)Oc2c(NC(=O)Nc3ccc(C(F)(F)F)cc3)cccc2C1=O the results were MITF inhib -6, YB-1 expression 0.072, PD-1 reverse act -2.5 and Shh pathway inh -32.
C[C@@H]1CN([C@H](C)CO)C(=O)Cc2cc(NC(=O)Nc3ccc(F)cc3)ccc2O[C@@H]1CN(C)Cc1ccc(Oc2ccccc2)cc1 was read as MITF inhib 9, YB-1 expression -0.32, PD-1 reverse act -6.2 and Shh pathway inh 43.
For O=c1cc(NCc2ccccc2)[nH]nc1-c1ccccc1 the results were MITF inhib -37, YB-1 expression -0.96 and PD-1 reverse act 0.1.
Screening COc1cc(OC)c2ccc(=O)oc2c1CC(O)C(C)(C)O (stereo not given) returned MITF inhib 1, YB-1 expression -0.4, PD-1 reverse act 0.0 and Shh pathway inh -7.
C[C@H]1CN([C@@H](C)CO)C(=O)c2cc(N(C)C)ccc2O[C@@H]1CN(C)C(=O)Nc1ccccc1 was read as MITF inhib 5 and YB-1 expression 0.32.
For C[C@@H]1CN([C@H](C)CO)C(=O)Cc2cc(NC(=O)Cn3cnnn3)ccc2O[C@H]1CN(C)C(=O)Nc1ccccc1 the results were MITF inhib -10, YB-1 expression -0.24 and PD-1 reverse act 0.1.
C[C@@H]1CN([C@@H](C)CO)C(=O)c2cccc(NS(=O)(=O)c3ccccc3)c2O[C@@H]1CN(C)Cc1ccc2c(c1)OCO2 was read as MITF inhib -5, YB-1 expression -0.22, PD-1 reverse act 2.3 and Shh pathway inh -39.
`C[C@H]1CN([C@@H](C)CO)C(=O)Cc2cc(NC(=O)Cc3cn(C)c4ccccc34)ccc2O[C@H]1CN(C)Cc1ccc(Oc2ccccc2)cc1` gave MITF inhib 30, YB-1 expression 0.014, PD-1 reverse act -2.1 and Shh pathway inh -25.
COc1ccccc1-c1nc(SCc2ccc(C(=O)O)cc2)n[nH]1 was read as MITF inhib 11 and PD-1 reverse act 0.6.
For COc1ccc(S(=O)(=O)N(C)C[C@H]2Oc3ccc(NC(=O)CCCN(C)C)cc3C(=O)N([C@@H](C)CO)C[C@@H]2C)cc1 the results were MITF inhib 1, YB-1 expression 0.059 and Shh pathway inh -2.
`COc1ccc(S(=O)(=O)Nc2cccc3c2O[C@H](CN(C)S(=O)(=O)c2cccs2)[C@H](C)CN([C@@H](C)CO)C3=O)cc1` gave MITF inhib -2, YB-1 expression -0.091 and Shh pathway inh 7.
O=C1CC(c2ccccc2)Oc2ccccc21 (stereo not given) was read as MITF inhib -4, YB-1 expression 0.19 and Shh pathway inh -30.
Cc1cc2ncc(-c3ccnc(SCCS(=O)(=O)c4ccccc4)n3)c(C)n2n1 was read as MITF inhib 9, YB-1 expression 0.0066, PD-1 reverse act 0.6 and Shh pathway inh 21.
`N#Cc1c(C(F)(F)F)cc(-c2cccs2)nc1SCC(O)CN1CCSCC1` (stereo not given) gave MITF inhib 13 and PD-1 reverse act -3.1.
`C=CC(C)(O)CC(/C=C(\C)CC(/C=C(\C)CCC=C(C)C)OC(C)=O)OC(C)=O` (stereo not given) gave MITF inhib 1, YB-1 expression -0.86, PD-1 reverse act -1.1 and Shh pathway inh -5.
For NS(=O)(=O)c1cc(Cl)c(Cl)c(S(N)(=O)=O)c1 the results were MITF inhib 6, YB-1 expression 0.48, PD-1 reverse act 7.0 and Shh pathway inh -33.
For C[C@H]1CN([C@@H](C)CO)C(=O)c2cccc(NS(=O)(=O)c3ccc(F)cc3)c2O[C@@H]1CN(C)Cc1ccc(-c2ccccc2)cc1 the results were MITF inhib 19, YB-1 expression 0.29, PD-1 reverse act -0.4 and Shh pathway inh 16.
Screening CN(C)S(=O)(=O)c1ccc(Cl)c(C(=O)Nc2ccccc2[N+](=O)[O-])c1 returned MITF inhib 0 and PD-1 reverse act -0.1.
Screening COc1ccc(NC(=O)Nc2cccc3c2O[C@@H](CN(C)C(=O)Nc2ccc(F)cc2)[C@@H](C)CN([C@H](C)CO)C3=O)cc1 returned MITF inhib -5, YB-1 expression 0.25, PD-1 reverse act 1.1 and Shh pathway inh -13.
For C[C@@H]1CN([C@H](C)CO)C(=O)Cc2cc(NC(=O)Nc3ccccc3)ccc2O[C@@H]1CN(C)Cc1ccc2c(c1)OCO2 the results were MITF inhib -4, YB-1 expression -0.14 and PD-1 reverse act 0.3.
COc1ccc(NC(=O)Nc2ccc3c(c2)C(=O)N([C@H](C)CO)C[C@H](C)[C@@H](CN(C)C(=O)CCCN(C)C)OCCCC[C@@H](C)O3)cc1 was read as MITF inhib 6, YB-1 expression 0.011 and PD-1 reverse act 0.0.
Screening Cc1ccc(S(=O)(=O)Nc2cccc3c2O[C@@H](CN(C)C(=O)Nc2cccc4ccccc24)[C@H](C)CN([C@@H](C)CO)C3=O)cc1 returned MITF inhib 2, YB-1 expression -0.16, PD-1 reverse act 0.7 and Shh pathway inh inconclusive.
For COc1ccc(NC(=O)N(C)C[C@H]2Oc3c(NS(=O)(=O)c4ccccc4)cccc3C(=O)N([C@H](C)CO)C[C@@H]2C)cc1 the results were MITF inhib -9, YB-1 expression -0.092, PD-1 reverse act 1.4 and Shh pathway inh -27.
Screening CC1(C)C[C@H](O)C[C@@]2(C)[C@H]1[C@H](O)C=C1COC(=O)[C@@]12O returned MITF inhib 1, YB-1 expression 0.12, PD-1 reverse act 1.6 and Shh pathway inh -21.
`COc1cccc(-c2csc3nc[nH]c(=O)c23)c1` gave MITF inhib -11, YB-1 expression 0.017, PD-1 reverse act 2.3 and Shh pathway inh 22.
Cc1noc(C)c1S(=O)(=O)Nc1ccc2c(c1)C(=O)N([C@H](C)CO)C[C@H](C)[C@H](CN(C)CC1CC1)O2 was read as MITF inhib -8, YB-1 expression 0.029, PD-1 reverse act 0.7 and Shh pathway inh -21.
`Cc1ccc(NC(=O)CSc2ncnc3sc4c(c23)CCC4)cc1` gave MITF inhib -16 and PD-1 reverse act -0.7.
For Fc1cccc(Cl)c1CSc1ccccc1C1=NCCCN1 the results were MITF inhib 13, YB-1 expression -0.068, PD-1 reverse act 2.2 and Shh pathway inh -5.
Screening CC(C)NC(=O)N(C)C[C@@H]1Oc2ccc(N(C)C)cc2CC(=O)N([C@H](C)CO)C[C@@H]1C returned MITF inhib 2, YB-1 expression 0.055, PD-1 reverse act -1.5 and Shh pathway inh -11.
Screening COc1cccc(NC(=S)NC(Cc2ccccc2)c2ccccc2)c1 (stereo not given) returned MITF inhib 1, YB-1 expression -0.21, PD-1 reverse act -3.1 and Shh pathway inh 18.
C[C@H](CO)N1C[C@H](C)[C@H](CN(C)CC2CC2)Oc2c(NS(=O)(=O)c3cccs3)cccc2C1=O was read as MITF inhib -4, YB-1 expression -0.096 and Shh pathway inh 3.
C[C@H]1CN([C@@H](C)CO)C(=O)c2cccc(NS(=O)(=O)c3cccs3)c2O[C@@H]1CN(C)CC1CC1 was read as MITF inhib -11, YB-1 expression -0.042 and Shh pathway inh -17.
COc1ccc(NC(=O)CCC2COc3ccccc3O2)c(OC)c1 (stereo not given) was read as MITF inhib -2 and PD-1 reverse act -0.5.
C[C@@H]1CN([C@@H](C)CO)C(=O)c2cccc(NC(=O)c3nc4ccccc4s3)c2O[C@@H]1CN(C)Cc1ccc2c(c1)OCO2 was read as MITF inhib 11, YB-1 expression -0.59, PD-1 reverse act -2.4 and Shh pathway inh -55.
`Cc1noc(C)c1NC(=O)N(C)C[C@H]1Oc2c(NC(=O)C3CCOCC3)cccc2C(=O)N([C@H](C)CO)C[C@H]1C` gave MITF inhib 0, YB-1 expression -0.092, PD-1 reverse act 2.6 and Shh pathway inh -31.
C[C@H]1CN([C@@H](C)CO)C(=O)c2cc(NC(=O)CCN3CCOCC3)ccc2O[C@@H]1CN(C)S(=O)(=O)c1ccc(Cl)cc1 was read as MITF inhib 1, YB-1 expression -0.15, PD-1 reverse act 1.6 and Shh pathway inh -9.
`COc1ccc(S(=O)(=O)N(C)C[C@H]2Oc3ccc(NC(=O)CCCN(C)C)cc3C(=O)N([C@H](C)CO)C[C@@H]2C)cc1` gave MITF inhib 14, YB-1 expression 0.033 and Shh pathway inh -11.
